Bioassay records as filed in PubChem BioAssay.
HCMV NEC inh: inhibitors of HCMV UL50-UL53 interaction, biochemical, HTRF; HCMV UL50-UL53 nuclear egress complex (human cytomegalovirus); normalized percent inhibition; inhibition, % (concentration not given with the values); 190,000 tested, 0.15% active; AID 1918969, 2023;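 active = both replicates at 50% or more, plus weaker picks with an unusually low signal ratio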;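 note: stock transfer was 100 nL into about 20 µL; 0% = negative control wells and 100% = wells with untagged competitor protein; inactives centre near -12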
Sa growth 42C: S. aureus growth inhibition at 42 and 30 °C, primary screen, LtaS inhibitor project, RN4220, two temperatures; OD600, 20 h, 42 °C; hits give low values; relative growth, % (test concentration not listed); 170,000 tested, 0.53% active;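 active = growth at 42 °C up to 50% and 20 or more points under that at 30 °C, or under 10% at both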;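 note: 300 nL library stock went into each well; scaled to the means of positive and negative controls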
GIV-Gai inh: inhibitors of GIV peptide binding to Galpha-i3, primary screen, biochemical, fluorescence polarization, FITC-GIV GBA peptide, rat Galphai3. Guanine nucleotide-binding protein G(i) subunit alpha-3 (Rattus norvegicus), P08753. 90 min; hits give low values; scaled: aluminum fluoride 0%, vehicle 100%. percent of control (FP), % (no concentration beside the values). 210,000 tested, 0.42% active;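 active = replicate mean at 85% of control or lower, very high polarization wells dropped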;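 note: wells of about 15 µL received 100 nL stock; the first replicate is given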
Target sequence (P08753 whole entry, looked up): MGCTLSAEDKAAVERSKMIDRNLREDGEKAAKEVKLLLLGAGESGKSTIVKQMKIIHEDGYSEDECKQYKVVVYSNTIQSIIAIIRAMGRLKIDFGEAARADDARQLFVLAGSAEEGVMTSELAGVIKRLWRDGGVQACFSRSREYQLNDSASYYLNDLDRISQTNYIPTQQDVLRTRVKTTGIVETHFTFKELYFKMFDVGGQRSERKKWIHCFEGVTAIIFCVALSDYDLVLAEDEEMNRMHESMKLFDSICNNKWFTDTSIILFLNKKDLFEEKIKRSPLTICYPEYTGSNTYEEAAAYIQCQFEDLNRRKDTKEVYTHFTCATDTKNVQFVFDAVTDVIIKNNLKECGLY
Sa growth 42C second temp: also measured in Sa growth 42C; calls as there; relative growth, %; measured here: growth at 30 °C;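 optical density after 20 h as mean of two plates; 100% = untreated growth and lower means inhibition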
* hit, by the source's call; x = not tested or not shown; & = joins results of further samples.

SMILES	HCMV NEC inh	Sa growth 42C	Sa growth 42C second temp	GIV-Gai inh
COc1ccc(OC)c2[nH]c(=O)c(CCNC(C)=O)cc12	-39	91	81	105
Cc1cc2oc(=O)c(C)c(C)c2c2c1C(=O)CC(c1ccc3c(c1)OCO3)O2 (centres undefined)	-15	x	x	98
Cc1nc(-c2cc(S(=O)(=O)N3CCC(C(=O)N4CCN(c5ccccc5)CC4)CC3)c(C)s2)no1	-8	x	x	106
O=C(CSc1nc2cc(C(=O)NCc3ccco3)ccc2c(=O)n1Cc1ccco1)c1ccccc1	-23	93	90	103
O=C(CSc1nccn2nc(-c3ccc(F)cc3)cc12)Nc1ccc(F)cc1F	15	x	x	107
Cc1ccc(-n2cnc3cc(C(=O)NCCC4=CCCCC4)ccc32)cc1Cl	x	89	97	98
O=C(Cc1ccc(-n2c(=O)[nH]c3ccsc3c2=O)cc1)Nc1ccc(-c2ccccc2)cc1	x	91	94	113
CC(c1ccccc1)N1CC(C(=O)O)CC1=O (centres undefined)	-16	90	85	98
NCc1noc(-c2ccccc2)n1	1	85	93	107
CCc1ccc(N2C(=O)NC(=O)/C(=C\c3ccc(OCC(=O)O)c(OC)c3)C2=O)cc1	-3	x	x	115
Cc1cc(CNCCCN2CCCCC2C)c(C)n1-c1ccnn1C(C)C (centres undefined)	-14	103	97	x
CCc1ccccc1NC(=O)C(C)(C)CC	-10	103	87	x
CCOc1ccc(C2CC(c3c(O)n(C)c(=S)n(C)c3=O)=NN2C(C)=O)cc1 (centres undefined)	-9	x	x	102
COc1cccc(-c2nc(CS(=O)(=O)CC(=O)N3CCN(c4ccccc4)CC3)c(C)o2)c1	9	101	78	105
Cc1nc(-c2ccc(OCC(=O)O)cc2)cs1	4	112	93	101
CC(C)Cc1nn(-c2ccccc2)cc1/C=C1\Cc2ccccc2C1=O	x	128	70	104
Cc1cc(C)c2c(-n3cccc3)c(C(=O)NC(C)C)sc2n1	-18	92	82	102
CN(C1CCN2CCc3ccccc3C2C1)S(C)(=O)=O (centres undefined)	4	102	98	100
Cc1ccc(-n2c(=O)c3c4c(sc3n(CC(=O)C(C)(C)C)c2=O)CCCCC4)cc1C	7	101	93	103
N=c1n(CC(=O)O)c2ccccc2n1Cc1ccccc1	-18	95	105	103
O=C1c2ccccc2C(=O)c2c1ccc(C(=O)Nc1cccc(Br)c1)c2[N+](=O)[O-]	-13	x	x	105
S=C(Nc1ccccc1)c1ccccc1	-10	120	87	x
CCCCNC(=O)Oc1ccc(-c2csnn2)cc1	3	103	98	105
CN(C(=O)CN1CCN(c2cccc(C(F)(F)F)c2)CC1)C1CCS(=O)(=O)C1 (centres undefined)	1	89	102	x
Cc1cc(=O)oc2c(C(=O)c3ccccc3)c(OC(=O)C(C)C)ccc12	x	97	87	105
Cc1noc2c1C(c1ccc(Br)cc1)C1=C(CC(c3ccc(O)cc3)CC1=O)N2 (centres undefined)	-13	x	x	107
COC(=O)c1c(NC(=O)Nc2ccc(Cl)cc2)sc(C)c1C	17	97	89	100
O=C(Nc1cccc(OC(=O)c2cccnc2)c1)c1cccnc1	-12	96	91	103
O=C(CN1C=NS(=O)(=O)c2ccc(C(F)(F)F)cc21)Nc1cccc(C(F)(F)F)c1	x	121	90	114
O=C(Nc1ccccc1F)C1CC(=O)N(CCc2c[nH]c3ccc(F)cc23)C1 (centres undefined)	-12	x	x	101
CN(C)c1ccc(C(O)C(=O)c2cccs2)cc1 (centres undefined)	-22	90	91	105
CCNc1ccc(Br)cc1-c1nc2ccccc2n(CC)c1=O	-8	x	x	105
Cc1ccc(-c2nnc(Nc3ccc(F)cc3)c3ccccc23)cc1S(=O)(=O)NC(C)C	-16	116	81	104
COC(=O)c1ccc(NC(=O)C2CC(=O)N(Cc3ccc(OC)cc3)C(=Nc3ccccc3)S2)cc1 (centres undefined)	-18	x	x	102
COc1ccc(C(=O)COC(=O)CCCC(=O)Nc2ccc(C(C)=O)cc2)cc1	-36	99	86	106
CC(C(=O)Nc1ccc(C(N)=O)cc1)N1CCC(c2nc3ccccc3o2)CC1 (centres undefined)	-16	77	88	x
CCCn1ccc2c(OCC(=O)Nc3ccc(NC(C)=O)cc3)cccc2c1=O	-28	88	81	102
CCOc1ccccc1NS(=O)(=O)c1ccc2oc(=O)c3ncn(C)c3c2c1	x	115	82	106
C=Cc1c(S(C)(=O)=O)sc(C(=O)Oc2ccccc2)c1C	-12	106	88	98
CCN(C(=O)Cc1c(C(=O)O)[nH]c2ccccc12)c1ccc(OC)cc1	9	97	89	99
O=C(/C=C/c1ccco1)OCC(=O)N1CCC(Cc2ccccc2)CC1	-61	98	95	x
CCN(CC)C(=O)CSc1n[nH]c(-c2cccs2)n1	-32	90	84	x
CCOC(=O)C1=C(O)c2ccccc2NC(=O)C1	-5	116	86	x
CC(=O)Nc1ccc(S(=O)(=O)NC2CCN(Cc3ccccc3)CC2)cc1	-1	111	100	98
Cc1nc(NCc2ccc(F)cc2)nc2c1C(=O)c1ccccc1-2	-40	96	87	103
Cn1cnc2cc(-c3n[nH]c(=O)c4ccccc34)ccc21	-18	91	88	100
CCOC(=O)c1sc(NC(=O)c2cc(=O)c3ccccc3o2)c(C(=O)OCC)c1C	-18	x	x	101
Cc1cc(C)cc(C(=O)NCC(=O)OCN2C(=O)c3ccccc3C2=O)c1	-20	73	92	x
CNC(=S)N1CCN(c2cccc(C)c2C)CC1	-7	104	86	99
CCC(=O)Nc1nnc(SCC(=O)Nc2ccc3c(c2)OCO3)s1	-30	95	87	100
Cc1c(C(=O)N2CCC(C)CC2)c(S(=O)(=O)NCc2ccc(Br)cc2)c(C)n1C	x	104	75	100
O=C(Cn1ncn2nc(-c3ccccc3)cc2c1=O)N1CCCC1	-11	96	93	97
N#Cc1c(N)c2ccccn2c1C(=O)c1ccc(Br)cc1	x	103	93	107
CCCS(=O)(=O)c1c(S(=O)(=O)CCC)c2cc(CC)ccn2c1C(=O)c1ccc(OC)cc1	-18	100	88	104
O=C1CSC(c2cccnc2)N1CC1CC1 (centres undefined)	-25	83	93	105
COc1ccccc1NC(=O)C(=O)NCC(c1ccc2c(c1)OCO2)N1CCN(C)CC1 (centres undefined)	x	123	87	102
COc1cc(Cl)ccc1Nc1ncc(C(=O)N2CCN(c3ccccc3OC)CC2)c2ccccc12	-19	119	89	105
O=S(=O)(c1ccc(Br)cc1)N1CCCC1c1ccc(F)cc1 (centres undefined)	22	x	x	99
CS(=O)(=O)c1ccc(NC(=O)CN2CSCC2=O)cc1	-15	89	98	x
CC(C)NC(=O)CCCn1sc2ccccc2c1=O	-18	105	95	102

Further entries
SMILES	HCMV NEC inh	Sa growth 42C	Sa growth 42C second temp	GIV-Gai inh
CCSc1sc(C(=O)OC)c2c1/C(=N/O)CC(C)(C)C2	-1	109	97	105
CS(=O)(=O)Nc1ccc(-c2nc3ccccc3s2)cc1	-39	112	85	100
Cc1c(CCO)sc[n+]1CC(=O)OC12CC3CC(CC(C3)C1)C2	-17	107	82	x
COc1ccccc1N1CCN(C(=O)CCNS(=O)(=O)c2ccc3c(c2)CCC(=O)N3)CC1	x	101	83	98
CCCCC(CC)CNC(=O)CCCn1c(=O)[nH]c2ccsc2c1=O (centres undefined)	9	87	87	109
O=c1oc2ccccc2cc1-c1cn2cc(Cc3ccc(F)cc3)sc2n1	2	105	100	107
CCOC(=O)N1CCN(C(=O)CSc2nc3c([nH]c4ccccc43)c(=O)n2-c2ccccc2)CC1	-4	95	87	107
O=C(NCCc1ccncc1)c1cc(Br)ccc1O	-17	112	67	102
CN(C)CCN1CCc2ccccc21	-16	96	74	99
Cc1nc(-c2ccccc2)sc1-c1ccc(SCC(=O)Nc2cccc(C(F)(F)F)c2)nn1	x	81	79	100
Cc1ccc(OCCn2cc(C(=O)c3cccs3)c3ccccc32)cc1	-10	95	86	104
CC(C)(C)c1ccc(COC(=O)c2ccc[nH]c2=O)cc1	-11	81	86	x
O=C(Nc1cccc(-c2nc3ccccc3o2)c1)c1ccccc1	-20	91	86	107
C=CCN1C2=NC(=O)CN2c2ccccc21	x	113	80	98
Cc1cc(C(F)(F)F)nn1C(=O)c1cccnc1Cl	x	69	82	103

At a glance, part of the list above:
SMILES	HCMV NEC inh	Sa growth 42C	Sa growth 42C second temp	GIV-Gai inh
C=CCN1C2=NC(=O)CN2c2ccccc21	x	113	80	98
Cc1cc(C(F)(F)F)nn1C(=O)c1cccnc1Cl	x	69	82	103

New compounds follow:
SMILES	HCMV NEC inh	Sa growth 42C	Sa growth 42C second temp	GIV-Gai inh
CCOc1cc(C2C(C#N)=C(N)Oc3n[nH]c(-c4ccc5c(c4)OCO5)c32)ccc1O (centres undefined)	-22	x	x	101
O=C(c1ccccc1)N1CCN(c2ccccc2)CC1	4	83	94	x
CCCCN1CCn2c(nc3cc(NC(=O)NC4CCCCC4)ccc32)C1	-13	x	x	107
CC(C)c1ccc2c(c1)CCC1C(C)(CNC(=O)/C=C/C(=O)O)CCCC21C (centres undefined)	-42	83	77	101
Cc1ccc(CNC(=O)CSc2nnc(C)c3c(C)n(-c4ccccc4)nc23)cc1	x	102	97	104
Nc1nc(CN2CCN(C(=O)c3ccco3)CC2)nc(N2CCCc3ccccc32)n1	-2	132	77	110
Cc1ccc(S(=O)(=O)Nc2cccc(C(=O)NC(C)(C)CO)c2)cc1	47	75	89	95
COc1ccc(CNC(=S)N(CC(N)=O)C(C)C)cc1	-15	38	0	x
O=C(CCn1c(=O)c2cccn2c2ccccc21)Nc1ccc(F)cc1	-10	105	81	103
O=C(OCCS(=O)(=O)c1ccc(C(F)(F)F)cn1)c1ccc(C(F)(F)F)cc1	-10	108	90	97
Nc1nc(N)nc(-c2cc(Cl)ccc2Cl)n1	-37&3&0&-29	82&75	94&84	101
CC(C)Cn1c(=O)c2sccc2n2c(CCC(=O)NC(C)C)nnc12	-13	x	x	94
COC(=O)c1ccc(NS(=O)(=O)c2cc(C(=O)OC)n(C)c2)cc1	-13	106	88	107
CCOC(=O)CN1C(=O)C2(C(C#N)=C(N)Oc3ccccc32)C2=C1CC(C)(C)CC2=O (centres undefined)	-18	90	92	103
O=C(NCc1cccs1)c1cccc(OC(F)F)c1	-7	97	86	x
CCc1c(C)nc(SCc2nc(-c3ccccc3C)no2)[nH]c1=O	x	72	94	102
Cc1[nH]c(=O)[nH]c(=O)c1S(=O)(=O)N1CCC(C(=O)NCCN2CCN(c3ccccc3)CC2)CC1	-18	96	92	104
O=c1c2sc3ccccc3c2n(Cc2cccc(Cl)c2)c(=O)n1Cc1ccccc1	-8	111	92	101
CCOC(=O)c1sc(N)c(C#N)c1COC(=O)[C@@H]1CCCN1C(=O)c1cccs1	-12	86	96	x
N#Cc1c(N2C(=O)CC(Sc3ncccc3C(=O)O)C2=O)sc2c1CCCC2 (centres undefined)	-14	89	72	109
CC1(C)CC(=O)c2cc(C(=O)Nc3ccc(Br)cc3)c(=O)n(-c3ccc(Cl)cc3)c2C1	-17	107	89	101
CCOc1c(NC(=O)c2ccc(N)cc2)cc(NC(=O)c2ccc(N)cc2)cc1C(N)=O	x	97	91	105
O=C(CC1Sc2ccccc2NC1=O)OCc1cc(=O)oc2cc(O)ccc12 (centres undefined)	-44	67	59	x
Cc1ccc(C)c(S(=O)(=O)N2CCN(CC(=O)Nc3ccc4[nH]c(=O)[nH]c4c3)CC2)c1	15	113	83	x
Cc1ccc(-c2cc3ncc4c(n3n2)-c2cc(Cl)ccc2OC4)cc1	2&12	102	99	105&105
COc1ccc(Cl)cc1NC(=O)C1CC(=O)n2c(nc3ccccc32)N1 (centres undefined)	-5	126	84	100
Fc1cccc(-c2[nH]ncc2-c2nnnn2-c2ccccc2)c1	-5	102	92	105
O=C1Nc2ccccc2/C1=C/C(=O)c1ccco1	-18	125	0	102
CSc1nnc(CNC(=O)c2ccccc2)n1-c1cccc(C)c1	-19	86	83	100

Among those listed so far, these contain an aryl methoxy group.
SMILES	HCMV NEC inh	Sa growth 42C	Sa growth 42C second temp	GIV-Gai inh
COc1ccc(OC)c2[nH]c(=O)c(CCNC(C)=O)cc12	-39	91	81	105
CCc1ccc(N2C(=O)NC(=O)/C(=C\c3ccc(OCC(=O)O)c(OC)c3)C2=O)cc1	-3	x	x	115
COc1cccc(-c2nc(CS(=O)(=O)CC(=O)N3CCN(c4ccccc4)CC3)c(C)o2)c1	9	101	78	105
COC(=O)c1ccc(NC(=O)C2CC(=O)N(Cc3ccc(OC)cc3)C(=Nc3ccccc3)S2)cc1 (centres undefined)	-18	x	x	102
COc1ccc(C(=O)COC(=O)CCCC(=O)Nc2ccc(C(C)=O)cc2)cc1	-36	99	86	106
CCN(C(=O)Cc1c(C(=O)O)[nH]c2ccccc12)c1ccc(OC)cc1	9	97	89	99
CCCS(=O)(=O)c1c(S(=O)(=O)CCC)c2cc(CC)ccn2c1C(=O)c1ccc(OC)cc1	-18	100	88	104
COc1ccccc1NC(=O)C(=O)NCC(c1ccc2c(c1)OCO2)N1CCN(C)CC1 (centres undefined)	x	123	87	102
COc1cc(Cl)ccc1Nc1ncc(C(=O)N2CCN(c3ccccc3OC)CC2)c2ccccc12	-19	119	89	105
COc1ccccc1N1CCN(C(=O)CCNS(=O)(=O)c2ccc3c(c2)CCC(=O)N3)CC1	x	101	83	98
COc1ccc(CNC(=S)N(CC(N)=O)C(C)C)cc1	-15	38	0	x
COc1ccc(Cl)cc1NC(=O)C1CC(=O)n2c(nc3ccccc32)N1 (centres undefined)	-5	126	84	100
